LANA-H2B inh – blocks KSHV LANA binding to histone H2A/H2B | Q9QR71 | cell-free LANA-H2A/H2B peptide, fluorescence polarization | inhibition, % (concentration not given with the values) | hit rate 0.6% among 320,000; in the data active means inhibition mostly above about 10%, no sharp cut-off; inactive means mostly below about 6.7%;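 further: stock transfer was 7.5 nL into about 10 µL; 0% = median of vehicle wells and 100% = median of positive control wells; one replicate is shown; the record names a cut of 25% in any replicate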
Target sequence (Q9QR71 whole entry, looked up): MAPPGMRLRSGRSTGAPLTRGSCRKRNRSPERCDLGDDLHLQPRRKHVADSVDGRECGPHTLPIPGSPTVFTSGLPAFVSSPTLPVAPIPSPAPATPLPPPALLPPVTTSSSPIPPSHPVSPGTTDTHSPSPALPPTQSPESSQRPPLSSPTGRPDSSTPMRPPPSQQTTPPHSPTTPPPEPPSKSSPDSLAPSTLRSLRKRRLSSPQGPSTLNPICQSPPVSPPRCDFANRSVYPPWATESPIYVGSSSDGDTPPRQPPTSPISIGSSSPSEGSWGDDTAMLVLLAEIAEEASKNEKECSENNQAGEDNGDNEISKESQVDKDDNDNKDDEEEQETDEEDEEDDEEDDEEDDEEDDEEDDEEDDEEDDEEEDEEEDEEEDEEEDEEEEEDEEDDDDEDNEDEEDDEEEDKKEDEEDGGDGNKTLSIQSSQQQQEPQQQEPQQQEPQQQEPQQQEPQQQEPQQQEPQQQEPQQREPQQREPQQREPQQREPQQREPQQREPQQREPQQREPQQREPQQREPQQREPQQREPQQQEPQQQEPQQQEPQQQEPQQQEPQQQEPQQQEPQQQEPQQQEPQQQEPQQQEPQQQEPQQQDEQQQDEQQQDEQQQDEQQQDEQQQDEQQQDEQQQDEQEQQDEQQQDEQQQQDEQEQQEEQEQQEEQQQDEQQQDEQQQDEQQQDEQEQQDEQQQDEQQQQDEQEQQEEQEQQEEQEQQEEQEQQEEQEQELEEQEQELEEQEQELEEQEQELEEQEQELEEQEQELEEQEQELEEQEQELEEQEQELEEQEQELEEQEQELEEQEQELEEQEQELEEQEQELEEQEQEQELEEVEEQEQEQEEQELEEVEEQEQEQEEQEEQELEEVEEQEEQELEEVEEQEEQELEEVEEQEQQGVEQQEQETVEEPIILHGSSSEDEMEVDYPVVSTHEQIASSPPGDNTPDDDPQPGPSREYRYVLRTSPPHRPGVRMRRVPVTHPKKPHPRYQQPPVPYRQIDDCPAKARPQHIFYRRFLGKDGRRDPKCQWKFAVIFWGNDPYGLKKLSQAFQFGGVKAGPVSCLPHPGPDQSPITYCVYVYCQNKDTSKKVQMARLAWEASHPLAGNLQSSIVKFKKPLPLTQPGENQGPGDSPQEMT
UCH37 inh – human UCH37 deubiquitinating enzyme inhibition | purified proteasome/UCH37, Ub-AMC cleavage fluorescence | inhibition, % (no concentration beside the values) | hit rate 0.33% among 330,000;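 active means mean of two replicates above 20%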;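 further: 0% = compound-free wells with enzyme and 100% = wells lacking proteasome; stock transfer was 100 nL into about 20 µL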
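Material: human UCH37 enzyme supplied as purified proteasome complex. Measure: % inhibition of Ub-AMC cleavage fluorescence. Medium: pH 7.4 Tris-HCl (50 mM) with ovalbumin, ATP-MgCl2, DTT. Times: 30 min preincubation with enzyme, 25 min cleavage at room temperature. Detection: AMC fluorescence intensity at 355/460 nm.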
RanGTP-Impb inh – inhibitors of RanGTP-importin-beta interaction, primary screen, biochemical, FRET, CFP-Ran, YFP-importin-beta, homogeneous | cell-free CFP-Ran/YFP-importin-beta FRET ratio | inhibition, % (no concentration beside the values) | hit rate 1.1% among 300,000;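 active means most replicates above 15%; inconclusive means exactly half above 15%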;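 further: 0% = DMSO wells and 100% = Ran loaded with GDP instead of GTP; wells of about 40 µL received 100 nL stock; the first replicate is given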
Bfl-1 A1 inh – inhibitors of the anti-apoptotic protein A1, read as caspase activation | caspase activation, % (test concentration not listed) | MEF A1-2A-BIM cells, Caspase-Glo 3/7 luminescence, 3 h; percent of clofoctol response, vehicle zero | hit rate 0.066% among 330,000 | AID 2462;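 active means over half of replicate activation scores above 10%, or exactly half above 10 with the replicate mean above 10; inconclusive means replicate mean below 10 yet half the replicates above 10; inactive means over half of replicates below 10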;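 further: wells of about 30 µL received 50 nL stock; many hits fall short of the cut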
T cruzi inh – T. cruzi replication inhibition; AID 1885; T. cruzi beta-gal in NIH3T3, luminescence, 90 h; hit rate 1.4% among 300,000; inhibition, % (no concentration beside the values);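 active means mean inhibition across valid replicates above about 55%, limit read from the data; inconclusive means mean below that limit but half or more replicates reach it; inactive means mean below it, under half of replicates reach it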;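 further: signal also drops with host cell toxicity which is not excluded here; 0% = plate median of DMSO wells and 100% = zero luminescence signal; higher percent means less beta-gal luminescence so fewer parasites; stock transfer was 50 nL into about 50 µL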
B2AR ag – human beta-2 adrenergic receptor agonism by FAP. P07550. Am2.2-beta2AR cells, FAP receptor internalization, flow cytometry; reference of the scale not given here. response, % (concentration not given with the values). hit rate 0.43% among 340,000;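 active means response above a set limit, near 3 SD of response in nonfluorescent compounds, cut at about 42% in these data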;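 further: stock transfer was 100 nL into about 11 µL; a reference agonist was the positive control; negative values mostly stem from fluorescent compounds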
Calb FLC – affects C. albicans growth with fluconazole; C. albicans CaCi-2 (fluconazole-resistant clinical isolate) + fluconazole, Alamar Blue growth, 48 h; growth inhibition, % (test concentration not listed); hit rate 0.57% among 300,000; AID 1979;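 active means most replicates above 75%; inconclusive means exactly half above 75%; inactive means most below 75%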;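 further: all wells also contain fluconazole at 8 µg/ml as a sub-toxic cotreatment; 0% = median of DMSO wells and 100% = median of geldanamycin control wells; wells of about 8 µL received 7.5 nL stock; the first replicate is given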
Beta apoptosis – blocks beta cell apoptosis. INS-1E cytokine-induced death, ATP luminescence, 48 h; percent of positive-control rescue, neutral wells zero. hit rate 0.8% among 300,000. protection from apoptosis, % (test concentration not listed);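 active means all replicates at 75% or more, or half of them and the mean; inconclusive means half reach 75% but not the mean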;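 further: 0% = cytokine-treated negative control wells and 100% = positive control rescue; higher means more ATP so stronger rescue from cytokine killing; wells of about 40 µL received 100 nL stock; the first replicate is given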
Active calls of the source: *; i = inactive; u = inconclusive; x = no result given.

SMILES,LANA-H2B inh,B2AR ag,RanGTP-Impb inh,UCH37 inh,Bfl-1 A1 inh,Beta apoptosis,Calb FLC,T cruzi inh
CC1CCCCN1C(=O)c1cc(F)c(F)cc1Cl (configuration not stated),0.4,7,6.6,-1.2,-0.3,-2,1,-9
CCOC(=O)C1CCN(C(=O)CN(c2ccc(OC)cc2)S(=O)(=O)c2c(C)nn(C)c2C)CC1,2.6,-4,0.5,-0.1,-0.6,1,-5,1
COc1ccc(Cc2nnc(NC(=O)c3cccs3)s2)cc1OC,3.5,0,5.1,4.9,-0.1,2,3,3
COc1ccccc1NS(=O)(=O)c1cc(C(=O)NCc2ccco2)ccc1C,0.9,-4,4.7,4.6,-0.3,3,55,1
CCc1ccc(/C=N/NC(=O)c2ccccn2)cc1,2.4,11,1.9,x,-7.2,16,-4,-16
CC1CCC2(CC1)NC(=O)N(CC(=O)N1CCOCC1)C2=O (configuration not stated),-0.9,-1,x,-1.2,-0.1,-6,x,x
CCC(=O)Nc1nnc(Cc2ccccc2)s1,1.7,-8,-5.2,3.0,-0.5,2,-5,-10
COc1ccc(OC)c(CCNC(=O)c2cccc(NC(=O)C3=C(C)OCCS3)c2)c1,-2.4,1,-0.4,1.4,0.9,1,27,-14
O=C(NCCCN1CCOCC1)c1cc(-c2ccc3c(c2)OCO3)nc2ccccc12,-5.0,0,2.5,2.1,0.6,-3,1,-7
O=C(COC(=O)c1ccccc1F)NC1CC1,-1.7,0,x,-1.3,-0.5,-2,x,x
CS(=O)(=O)c1[nH]nc(-c2ccccc2)c1C#N,1.7,-5,-1.6,1.2,0.5,0,-11,1
Cc1cccc(CC(=O)NC2CCS(=O)(=O)C2)c1 (configuration not stated),3.4,-3,0.9,2.0,0.6,0,2,-12
CC1CCc2c(sc(NC(=O)C3=COCCO3)c2C(N)=O)C1 (configuration not stated),x,4,x,-11,-1.0,1,x,x
c1ccc(COc2ccc(CN3CCN(c4ccccn4)CC3)cc2)cc1,1.9,-10,-1.5,-0.1,-2.7,-2,-3,20
Cc1ccc(C)c(CSc2nnc(CCN)o2)c1,1.0,0,-0.6,3.9,-0.2,8,0,5
Cc1ccc(C(=O)C(C)OC(=O)c2nc(Cl)ccc2Cl)cc1 (configuration not stated),-8.9,-7,2.0,2.7,0.6,-4,-10,-5
COc1ccc(/C=C(/NC(=O)c2ccccc2Cl)C(=O)O)cc1,2.3,2,u,0.4,0.4,-2,3,-8
CCc1ccc(N(C(=O)CNC(=O)c2ccco2)C(C(=O)NC2CCCC2)c2ccncc2)cc1 (configuration not stated),4.8,-9,-0.4,1.5,0.8,1,4,8
CCOc1ccc(/C(O)=C2/C(=O)C(=O)N(c3cc(C)on3)C2c2ccc(C(=O)OC)cc2)cc1 (configuration not stated),-7.1,-2,1.1,9.9,-0.4,-4,-3,-6
Cn1c(SCC(=O)NCc2ccco2)nnc1-c1ccc(S(=O)(=O)N2CCOCC2)cc1,3.5,-1,-3.6,1.6,0.3,-1,-1,-6
CCOC(=O)N1CCC(c2cc(=O)n3[nH]c(C)c(-c4ccc(F)cc4)c3n2)CC1,-4.2,-4,-2.2,-5.7,1.2,x,-3,-6
O=C(CSc1nnc(Cc2ccccc2)c(=O)[nH]1)Nc1ccccc1,-0.9,-2,1.3,6.4,0.8,x,-6,6
CCOC(=O)C(=O)Nc1ccc([N+](=O)[O-])cc1OC,1.0,18,0.6,4.8,-0.2,-3,-10,-13
NC(=O)c1cccnc1Oc1ccc(Cl)cc1,1.4,-5,0.4,1.9,1.5,0,-5,3
CN(CCC#N)CC(=O)Nc1ccc(NC(=O)CN(C)CCC#N)cc1,-4.3,-4,-0.8,3.1,1.3,0,-21,-11
CC(=O)Nc1ccc(NC(=O)C2CCN(C(=O)C3CC(=O)N(c4ccc(C)cc4)C3)CC2)cc1 (configuration not stated),4.3,3,-2.8,3.2,-0.6,2,-8,-4
Cc1ccc(C)c(C(=O)CN2Cc3ccccc3C2=O)c1,-3.2,5,-2.4,1.2,-0.8,x,11,-8
Cc1ccc(-c2nnc(SCC(=O)Nc3nc4c(s3)CCCC4)n2C)cc1,1.9,-1,-2.4,-1.9,-0.8,-8,-13,-4
Cc1nn(-c2ccccc2)c(Cl)c1C(=O)NNC(=O)c1ccncc1,-0.9,-3,x,x,0.7,2,x,x
Cc1cccc(C)c1NC(=O)CNc1ncnc2sc(C)c(C)c12,-3.2,-15,-2.1,-2.0,0.2,25,-1,-29
CC1(C)CC(=O)C2=C(C1)OC(N)=C(C#N)C2c1ccccc1[N+](=O)[O-] (configuration not stated),11,4,61*,-0.7,0.3,-4,-5,-11
C=CCOC(=O)/C(=C/c1cccnc1)NC(=O)c1ccccc1,11,7,-0.5,5.6,-0.9,1,-4,-7
O=C(NC1CCCc2c1cnn2-c1ccc(F)cc1F)c1cnccn1 (configuration not stated),-3.2,8,2.3,2.9,1.0,-7,-2,4
N#Cc1c2c(nc(N)c1-c1ccccc1)CCCCC2,0.3,7,-0.1,x,-0.6,x,34,-5
Cc1ccc(Cc2cnc(N3C(=N)SC(C)C3=O)s2)cc1 (configuration not stated),1.8,20,3.7,0.2,-1.2,8,82*,1
Cc1cc(C)c([N+](=O)[O-])cc1NC(=O)CCSc1ccccc1Cl,8.1,-1,3.0,2.5,0.3,-13,0,30
Cc1ccccc1NC(=S)NCc1ccc2c(c1)OCO2,-0.9,-14,1.9,2.9,0.2,-5,-3,-24
CC(=O)NCCC(=O)Nc1cccc(S(=O)(=O)N(C)c2ccccc2)c1,3.4,15,4.7,1.7,0.9,-1,8,-5
CC1(C)CC(=O)c2c(n(S(=O)(=O)c3ccccc3)c3ccc(NS(=O)(=O)c4ccccc4)cc23)C1,-0.2,9,4.3,6.6,-0.2,12,-5,63*
COC(=O)c1ccc(N2CCC(c3cc(-c4ccc(OC)cc4)n[nH]3)CC2)c([N+](=O)[O-])c1,8.1,16,-1.2,5.4,1.4,4,u,45
O=S(=O)(N1CCOCC1)N1CCCN(S(=O)(=O)N2CCOCC2)CC1,-3.7,0,2.6,1.1,0.8,-6,11,-23
NC(=O)CN1C(=O)C(=O)N(Cc2ccccc2Cl)C1=O,-3.3,4,-4.9,0.9,0.6,2,-13,-2
CSCCC(NC(=O)C1CCC(C)CC1)C(=O)NCCN1CCC(C)CC1 (configuration not stated),-0.5,-3,2.9,4.9,0.0,-2,-6,5
Cc1cc(C(=O)N/N=C/c2ccc([N+](=O)[O-])cc2)c2ccccc2n1,-5.6,-5,4.8,x,0.8,14,-1,-15
COc1ccc(OCc2nnc(SCC(=O)Nc3ccccc3F)o2)cc1,-2.9,1,0.6,-0.2,-0.2,2,-10,-2
Cc1cccc(NC(=O)c2ccc(S(=O)(=O)N3CCOCC3)cc2)c1C,2.6,3,0.3,-1.8,-0.8,2,-4,-9
Cc1cc(C)c2c(N=CN(C)C)c(C(=O)N3CCN(c4ncccn4)CC3)sc2n1,3.3,10,0.0,0.7,0.2,4,6,-21
Cc1ccc(Sc2cnc3ccccc3n2)cc1,-5.0,-2,1.1,4.4,0.7,-6,3,-5
O=C(NNC(=S)NC(=O)c1ccccc1Cl)c1cccc([N+](=O)[O-])c1,0.1,-2,3.7,5.9,-0.8,3,-11,-3
O=C(COc1ccccc1)Nc1nc(-c2ccc(S(=O)(=O)N3CCOCC3)cc2)cs1,-5.7,5,1.0,1.2,-0.7,6,15,-4

(list continues)
SMILES,LANA-H2B inh,B2AR ag,RanGTP-Impb inh,UCH37 inh,Bfl-1 A1 inh,Beta apoptosis,Calb FLC,T cruzi inh
O=C(c1ccc(OC2CCN(Cc3ccccc3O)CC2)cc1)N1CCCCC1,0.6,2,0.9,4.1,0.9,-5,-5,16
Cc1cccc(Nc2ncnc3c2cnn3Cc2ccccc2)c1,-2.7,10,3.6,-3.1,0.1,2,-8,-29
CC1(c2ccc(Cl)cc2)NC(=O)N(CC(=O)c2ccc3c(c2)OCO3)C1=O (configuration not stated),0.8,0,1.8,-2.3,-1.2,-5,-6,1
c1ccc(Oc2ccc(-n3cnnn3)cc2)cc1,0.6,-13,3.0,4.8,1.1,1,4,-2
COc1cc(NS(=O)(=O)c2ccc3c(c2)NC(=O)CO3)cc(OC)c1,0.0,1,-1.1,0.3,-0.4,2,23,-4
N#Cc1c(-c2ccccc2)cc(-c2cccs2)nc1SCC(=O)O,5.3,11,-3.7,-67,0.7,3,5,-1
N#CCC(=O)Nc1nc(-c2ccc3c(c2)OCCO3)cs1,-0.6,-2,6.8,4.9,-8.4,x,-5,-2
Cc1ccc(S(=O)(=O)N(Cc2nccn2C)C(C)C)cc1,3.2,9,0.3,-0.2,0.6,-1,-1,-4
N=c1n(CC(=O)c2cccs2)c2ccccc2n1Cc1ccccc1,-0.7,-3,1.2,4.2,0.6,5,u,-16
NC(=O)[C@@H]1CCCNc2c(F)cc([N+](=O)[O-])cc2C(=O)N[C@@H](CO)C(=O)NCC(=O)N1,3.6,0,4.5,8.3,1.3,-4,-6,-34
Cc1ccc(CCNC(=O)C2CCC(=O)N2C2CCCC2)cc1 (configuration not stated),3.0,-13,1.2,2.6,-0.6,3,1,-4
COc1cc(CCC(=O)Nc2ccc(Br)c(C(F)(F)F)c2)cc(OC)c1OC,-4.3,-7,0.8,2.3,-0.2,-5,-4,16
CC(=O)C1C(c2ccc(Br)cc2)C2C(C)=NN=C2CC1(C)O (configuration not stated),-7.3,5,2.8,3.5,1.3,2,-11,-1
COc1cc(C2NC(=O)CCC2[N+](=O)[O-])cc(OC)c1OC (configuration not stated),10,0,-1.3,-5.6,-0.4,-1,7,-10
CC(=O)Nc1ccc(S(=O)(=O)N2CCN(C)CC2)cc1,-2.6,2,-1.8,5.9,-0.2,x,-9,-8
O=C(CSc1nc(O)cc(=O)n1-c1ccccc1)N1CCCCC1,x,-9,-0.6,0.6,x,x,-9,-9
COc1ccccc1C(=O)Nc1cccc(N(C)S(C)(=O)=O)c1,-4.6,-14,0.9,3.9,0.4,x,6,10
Cc1cccc(NS(=O)(=O)c2ccc(OCC(=O)N3CCCC3)cc2)c1,-2.3,2,2.2,2.1,0.0,x,4,-1
O=c1[nH]c(=O)n(-c2ccccc2)c2c1C(C(F)(F)F)(C(F)(F)F)N=C(CCC1CCCCC1)N2,-8.8,0,-2.3,-0.2,-1.1,-6,-10,23
Cc1occc1C(=O)Nc1cccc(Cn2cccn2)c1,-1.9,3,1.1,1.7,-0.4,-3,2,0
Cc1c(Cl)cnc(NC(=O)COC(=O)c2ccncc2)c1Cl,-2.0,1,x,-0.2,0.9,-5,x,x
CN(C(=O)CSc1ncnc2sccc12)C1CCS(=O)(=O)C1 (configuration not stated),i,-3,x,5.2,-0.2,-3,x,x

High-throughput results: PubChem BioAssay, several laboratories
